MT1-MMP act inh = blockers of MT1-MMP proenzyme processing, primary screen, HT1080 RFP-PRO-GFP cells, GFP/RFP fluorescence. Matrix metalloproteinase-14 (Homo sapiens), P50281. GFP/RFP ratio fluorescence, overnight; percent of plate control window, DMSO zero. GFP/RFP ratio change, % at 20 µM. 360,000 compounds, 0.061% hits. AID 651647, 2012;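 active means GFP/RFP ratio change of at least 30% with cell ATP level not reduced by more than half and red fluorescence within 50% of control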; further: strong numbers were not always called active
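Material: RFP-PRO-GFP reporter HT1080 cells. Dosing: single-point 20 µM compound, 1% DMSO. Controls: DMSO and RFP-L50D-GFP cell wells. Timing: cells overnight before dosing, compound overnight, 37 °C, 5% CO2. Measure: GFP/RFP fluorescence ratio.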
UUG fidelity = modulators of yeast start codon fidelity, primary screen, whole organism, S. cerevisiae, single point, plate reader. S. cerevisiae UUG-firefly luciferase reporter, luminescence/redox ratio. AID 602363, 2012. 350,000 compounds, 0.13% hits. activity score, % at 18.7 µM;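 active means replicate mean at a twofold rise or more, about +100% in these data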;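 further: firefly luciferase made from a UUG start codon reports start codon fidelity; reporter light over untreated wells divided by growth signal over untreated wells; some hits fall short of that in this replicate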
HIV Env fusion = inhibitors of HIV-1 Env-driven cell-cell fusion, primary screen, HeLa-JRFL effector, CEM21 target cells, luciferase; 360,000 compounds, 1.1% hits; inhibition, % at 12.3 µM; AID 651610, 2012;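 active means mean replicate inhibition score of at least 50 and every replicate individually at or above 50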;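 further: 0% = plate neutral controls and 100% = maraviroc near 300 nM; one replicate is shown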
eIF4H inh = human eIF4H binding inhibitors, primary screen, translation initiation inhibitor project, biochemical, uHTS, fluorescence polarization; 290,000 compounds, 0.94% hits; AID 2012, 2009; inhibition, % at 35 µM; eIF4H fluorescence polarization binding assay; Eukaryotic translation initiation factor 4H (Homo sapiens), Q15056;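 active means 50% or more with normal probe brightness, or confirmed in later tests; about a fifth of its hits are not listed in these tables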;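 further: calls also rest on retests at 20 µM and on dose response follow-up; 0% = protein and probe with vehicle and 100% = probe without protein; strong numbers were not always called active; many hits fall short of the cut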
Rce1 inhib = yeast Rce1p protease inhibitors, primary screen, biochemical, fluorescence, cell-free homogeneous. yeast membranes, quenched prenylated peptide cleavage fluorescence. calls only. 290,000 compounds, 0.27% hits;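 active means fall in fluorescence gain of 50% or more versus controls, with final raw signal at or below 3038400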;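 further: plate controls were neutral control wells for no effect and wells lacking membranes for full effect; tested at 10 µM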
CSC inhib = cancer stem cell viability inhibitors, primary screen, luminescence; inhibition, % at 7.5 µM; 300,000 compounds, 1.1% hits; cancer stem cell-like cells viability;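 active means mean at 75% or more and at least half the replicates too; tested in HMLE shEcad cells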;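 further: 0% = median of negative and 100% = median of positive control wells; the first replicate is given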
PABP polyA inh = PABP poly(A) RNA binding inhibitors, primary screen, biochemical, fluorescence polarization, uHTS; inhibition, % at 35 µM; 290,000 compounds, 1% hits; AID 2014, 2009; Polyadenylate-binding protein 1 (Homo sapiens), P11940;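 active means 50% or more with normal probe brightness, or confirmed in later tests; about a fifth of its hits are not listed in these tables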;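 further: calls also rest on retests at 20 µM and on dose response follow-up; controls were probe without protein and protein plus probe with vehicle; some compounds called inactive have numbers as strong as hits; many hits fall short of the cut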
Target sequence (P11940 whole entry, looked up): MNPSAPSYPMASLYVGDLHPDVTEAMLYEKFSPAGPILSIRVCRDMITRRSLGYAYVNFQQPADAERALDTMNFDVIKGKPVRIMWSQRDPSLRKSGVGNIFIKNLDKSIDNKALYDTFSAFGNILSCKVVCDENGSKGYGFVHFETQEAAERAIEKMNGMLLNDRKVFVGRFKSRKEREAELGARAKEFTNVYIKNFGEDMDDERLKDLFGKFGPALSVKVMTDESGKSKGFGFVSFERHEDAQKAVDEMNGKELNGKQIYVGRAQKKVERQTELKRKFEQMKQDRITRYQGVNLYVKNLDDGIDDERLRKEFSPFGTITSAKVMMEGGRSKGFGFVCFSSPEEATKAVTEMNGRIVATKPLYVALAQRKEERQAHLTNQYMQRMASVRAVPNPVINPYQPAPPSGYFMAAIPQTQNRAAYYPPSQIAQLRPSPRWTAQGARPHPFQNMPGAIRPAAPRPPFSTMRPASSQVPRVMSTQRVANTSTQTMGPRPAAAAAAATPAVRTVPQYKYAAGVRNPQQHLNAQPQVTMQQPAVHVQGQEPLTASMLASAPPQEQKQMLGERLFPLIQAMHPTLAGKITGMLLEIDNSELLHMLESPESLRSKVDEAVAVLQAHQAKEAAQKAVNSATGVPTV
eIF4H inh retest = recorded beside eIF4H inh, whose call it bears; inhibition, %; compound at 20 µM; confirmation average;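 mean of two retest wells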
PABP polyA inh retest = also measured in PABP polyA inh; calls as there; inhibition, %; compound at 20 µM; confirmation repeats;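 mean of two retest wells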
MT1-MMP act inh RFP = further read-out of MT1-MMP act inh, marked with its call; RFP signal change, %; measured here: RFP expression control read;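 0 = vehicle wells; hits needed this value within 50% of zero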
Active calls of the source: *; i = inactive; . = no result given.

SMILES	MT1-MMP act inh	MT1-MMP act inh RFP	UUG fidelity	HIV Env fusion	eIF4H inh	Rce1 inhib	CSC inhib	PABP polyA inh	others
CCc1ccc(O)c(-c2cc(C(=O)Nc3cccnc3)[nH]n2)c1	3	-5	-14	-180	1	i	-12	9
C=CCNC(=S)N/N=C(\C)c1cc(OC)c(OC)c(OC)c1	6	4	.	-3	0	i	4	-2
CCN(CC)CCN1C(=O)C(O)=C(C(=O)c2cc3ccccc3o2)C1c1cccnc1 (configuration not stated)	2	0	-9	.	1	i	-16	9
Cc1ccc(OCCn2ccc(=O)[nH]c2=O)cc1C	0	0	.	-24	5	i	-1	6
Cc1ccc2nc(SCC(=O)Nc3cccc4ccccc34)nc(=O)n2c1	-7	-2	-7	-5	.	i	-15	.
O=C(Nc1nc(-c2cccnc2)cs1)c1ccccc1F	2	3	.	-40	-7	i	.	-7
COC(=O)c1ccc(Cn2c(O)c(N=NC(N)=S)c3ccccc32)o1	13	4	.	12	75	i	-11	11	eIF4H inh retest=48;PABP polyA inh retest=18
COc1ccc(-c2coc3cc(O)c(OC)cc3c2=O)cc1	5	-1	-12	-70	.	.	-3	.
O=C(Nc1ccc(Cl)cc1)Nc1ccc(S(=O)(=O)Nc2ncccn2)cc1	0	-6	.	2	-5	i	-6	-7
COc1ccc(-c2csc(N3CCOCC3)n2)cc1OC	6	2	-15	.	0	i	-6	5
COc1ccccc1NS(=O)(=O)c1cccc(NC(=O)c2cncc(Br)c2)c1	0	-13	-6	30	.	.	15	.
Cc1cc(C)n(C(=O)CNC(=O)c2ccc(C(C)(C)C)cc2)n1	0	0	-8	-13	-7	i	-17	-13
Cc1nnc(N)nc1C	0	3	-16	.	-5	i	11	-6
CCOc1ccc2nc(NC(=O)CSc3nc4c(c(=O)n(C)c(=O)n4C)n3CC)sc2c1	.	.	.	.	-9	i	-5	-10
Cc1cccc(C#Cc2ccccc2)n1	0	0	-19	-62	.	.	-2	.
COc1ccccc1CCC(=O)N(C)CC(=O)Nc1ccc(F)cc1	1	0	-14	-4	0	i	7	-11
Cn1ccc(C(=O)N/N=C/c2cccnc2)n1	-2	2	1	17	12	.	-10	1
C=CCN1/C(=C2/SC(=S)N(C)C2=O)Sc2ccccc21	.	.	.	.	43	i	-12	16
CC1Sc2ccc(S(=O)(=O)NCCc3ccccc3)cc2NC1=O (configuration not stated)	0	2	-9	10	2	i	-17	-3
CCOC(=O)N1CCN(C(=O)COc2ccc3oc4c(c3c2)CCCC4)CC1	0	2	-10	18	.	i	.	.
CCOC(=O)CSc1nc2sc3c(c2c(=O)n1-c1ccccc1)CCN(C)C3	-6	2	-11	10	72	i	-11	18	eIF4H inh retest=1;PABP polyA inh retest=28
COc1ccc(C2(C(=O)Nc3ccc(C)cc3)CCOCC2)cc1	-3	-2	-9	6	1	i	3	-10
COc1ccc(C(=O)C2CCCN(Cc3sc(N4CCCC4)nc3Cl)C2)c(OC)c1 (configuration not stated)	-1	-9	.	24	-5	i	0	-2
Cc1ccc(NC(=O)c2cccc(NC3=NC4CS(=O)(=O)CC4S3)c2)cc1 (configuration not stated)	6	7	2	.	-14	i	.	-5
CN1CCN(Cc2coc3c(Cl)cc(Cl)cc3c2=O)CC1	4	4	-22	-7	1	i	14	-3
CC(=O)NC(Nc1nc2c(s1)CCCC2)(C(F)(F)F)C(F)(F)F	0	2	-16	5	2	i	9	3
COCCn1c(SCC(=O)Nc2ccccc2F)nnc1-c1ccoc1C	1	0	-16	2	-1	i	-12	6
CC(=O)c1ccc(NC(=S)Nc2ccc3cn[nH]c3c2)cc1	-3	-2	-24	16	-12	i	5	6
COc1ccc(C(c2sc3nc(C)nn3c2O)N2CCC3(CC2)OCCO3)cc1 (configuration not stated)	2	-1	-14	.	-8	i	12	3
O=C1OCCC1Sc1nnc(-c2ccco2)n1-c1ccccc1 (configuration not stated)	-2	1	.	12	-3	i	-9	-8
COc1cccc(C2CC(=O)Nc3c2c(=O)[nH]c2ncnn32)c1 (configuration not stated)	2	2	.	18	5	i	8	-7
CCCN(CCC)c1nc(NC2CCN(C(=O)OCC)CC2)nc(OC)n1	-2	-15	5	.	-7	i	10	0
Cn1c(=S)c2[nH]c(SCCN3CCCC3)nc2n(C)c1=O	-5	0	-18	-7	8	i	-11	12
S=C1NCN(Cc2ccccc2)CN1C1CCCCC1	-1	-1	.	-4	-10	i	-8	0
CCOc1ccc(CC(=NCCc2ccccc2)C2=C(O)CC(C)(C)CC2=O)cc1OCC	-2	-3	9	1	-11	i	4	-3
Cc1ccc2c(CN3CCN(c4ccccc4)CC3)cc(=O)oc2c1	1	0	-14	-18	.	.	.	.
O=C(NCCCO)/C(=C/c1ccc(-c2cccc([N+](=O)[O-])c2)o1)NC(=O)c1ccccc1	-2	1	-11	-9	1	i	7	-2
O=C(C1CCN(Cc2ccccc2O)CC1)N1CCN(Cc2ccc3c(c2)OCO3)CC1	3	-1	1	12	18	i	-5	4
Cc1cc(C)cc(OCC(=O)N2N=C(C(F)(F)F)CC2(O)C(C)(C)C)c1 (configuration not stated)	0	-9	3	.	10	i	4	56	eIF4H inh retest=-5;PABP polyA inh retest=8
CCOC(=O)/C(C#N)=C\c1cc(OC)c(OC)cc1[N+](=O)[O-]	-6	-3	.	9	2	i	.	-2
O=C(Nc1ccc(Cl)c(Cl)c1)c1cccnc1	3	-3	-15	-57	-4	i	7	-3
COc1cc(/C=N/NC(=O)c2ccc(NC(=O)C3CCCCC3)cc2)ccc1O	6	0	-4	4	8	i	1	-4
O=C(CCCSc1ccccc1)Nc1cccc(CO)c1	5	4	-10	-9	-7	i	.	1
CCOc1ccc(-c2nnc(-c3ccc(OC)cc3)o2)cc1	-1	-7	-10	.	-3	i	-1	15
O=C(c1cccc(S(=O)(=O)N2CCN(c3ccccc3)CC2)c1)N1CC=C(c2ccccc2)CC1	1	-16	-18	-169	-12	i	-7	7
CC(=O)c1ccc(N=C2C(=O)Nc3ccccc32)cc1	5	10	-10	-14	-2	i	-14	8
O=C(C1=C(O)C(=O)N(CC2CCCO2)C1c1ccc(Cl)cc1Cl)c1ccco1 (configuration not stated)	-7	1	-17	3	-16	.	7	27
Cc1ccc(S(=O)(=O)N2CCCC(C(=O)NC3CCCC3)C2)cc1 (configuration not stated)	-3	-8	-16	-6	-8	.	-13	-4
CCCC(=O)O[C@]1(C(=O)CO)CC[C@H]2[C@@H]3CCC4=CC(=O)CC[C@]4(C)[C@H]3[C@@H](O)C[C@@]21C	4	2	5	0	-4	i	-11	10
O=C1c2ccccc2C(=O)N1/N=C/c1ccc(Oc2ccc([N+](=O)[O-])cn2)cc1	7	2	-14	-13	-3	i	3	5

Grouped by structure: the entries above containing a tert-butyl group (2)
SMILES	MT1-MMP act inh	MT1-MMP act inh RFP	UUG fidelity	HIV Env fusion	eIF4H inh	Rce1 inhib	CSC inhib	PABP polyA inh	others
Cc1cc(C)n(C(=O)CNC(=O)c2ccc(C(C)(C)C)cc2)n1	0	0	-8	-13	-7	i	-17	-13
Cc1cc(C)cc(OCC(=O)N2N=C(C(F)(F)F)CC2(O)C(C)(C)C)c1 (configuration not stated)	0	-9	3	.	10	i	4	56	eIF4H inh retest=-5;PABP polyA inh retest=8

Other records follow.
SMILES	MT1-MMP act inh	MT1-MMP act inh RFP	UUG fidelity	HIV Env fusion	eIF4H inh	Rce1 inhib	CSC inhib	PABP polyA inh	others
CCOc1cc(C(=O)Nc2ccc(S(=O)(=O)NC3=NCCCCC3)cc2)cc(OCC)c1OCC	-6	-4	.	22	4	i	-9	3
Cc1cccc(C(=O)N2CCC(=O)N(C(COCc3ccc(Cl)cc3)Cc3ccccc3)CC2)c1 (configuration not stated)	2	-8	-10	-8	-1	i	1	6
COc1ccccc1NC1=NC(C)(C)N=C(N)N1	4	7	.	-113	-5	i	-4	-6
CC1CCCC(C)N1C(=O)COC(=O)c1ccc[nH]c1=O (configuration not stated)	-1	2	-9	.	-1	i	-7	-7
CCN1CCN(c2ccc(S(=O)(=O)N3CCOCC3)cc2NC(=O)/C=C/c2ccc([N+](=O)[O-])cc2)CC1	-5	-1	-1	-16	.	i	.	.
COc1ccc(OC)c(C2NC(=O)NC(C)=C2C(=O)OCc2ccccc2)c1 (configuration not stated)	3	-3	-12	15	-4	i	-2	5
O=C(COC(=O)c1cc(=O)c2ccccc2o1)NCC1CCCCC1	-1	1	-8	-5	-6	i	-9	50
COc1ccccc1NC(=O)CNC(c1ccccc1)c1ccccc1	-4	-2	4	22	-2	.	7	-5
CC(C)Oc1ccc(CCN=C(N)N=C(N)N)cc1Cl	0	-7	.	1	-2	i	13	-6
CC(=O)c1cccc(S(=O)(=O)NCC(c2ccco2)N2CCCCC2)c1 (configuration not stated)	-3	0	-11	7	5	i	10	13
Cc1ccc(NC(=O)c2nc[nH]c2C(=O)N[C@@H](CCCCNC(=O)OC(C)(C)C)C(=O)OC(C)(C)C)cc1	-9	-14	9	32	10	i	4	-7
COc1cc(C(=O)NN(CCC#N)C2=NS(=O)(=O)c3ccccc32)cc(OC)c1OC	0	-3	-5	-1	4	i	11	-13
COc1ccc(NC(=O)c2cc(S(=O)(=O)N3CCOCC3)ccc2C)cc1S(=O)(=O)N1CCCCC1	3	-1	3	-5	.	.	.	.
COc1ccc(S(=O)(=O)N2CCOCC2)cc1NC(=O)COc1ncnc2ccccc12	-1	-2	.	-11	-9	i	-2	1
Cc1cc(C)n(-c2ccc(C(F)(F)F)cc2[N+](=O)[O-])n1	4	0	.	16	11	i	-10	0
C[n+]1ccccc1/C=C/c1c(F)cccc1F	-1	-2	-21	24	63	i	-15	76*	eIF4H inh retest=14;PABP polyA inh retest=93*
O=S(=O)(c1cccc(-c2n[nH]c(=S)n2C2CCCC2)c1)N1CCOCC1	1	-8	.	14	7	i	-15	-3
CC(=O)NC(=S)Nc1ccc2oc(-c3cc(F)c(F)cc3Cl)nc2c1	-4	-7	.	-26	-7	i	2	0
CCN(C1CCCCC1)S(=O)(=O)c1ccc(S(=O)(=O)N2CCN(CCC#N)CC2)cc1	-6	-10	1	8	1	i	1	-11
COc1ccc(C(=O)COC(=O)c2n[nH]c3ccccc23)c(OC)c1	-3	-3	6	-54	.	.	.	.
C/C(=N\Nc1nc2ccccc2c(=O)n1O)c1ccco1	2	2	.	-7	79*	i	2	24	eIF4H inh retest=79*;PABP polyA inh retest=26
Cc1ccc(S(=O)(=O)N2CCC(=O)CC2c2ccccc2)cc1 (configuration not stated)	1	0	-7	-6	.	.	.	.
CN(Cc1nc2ccccc2c(=O)[nH]1)C(=O)c1cc(C2CC2)nn1-c1ccccc1	0	1	13	.	.	.	7	.
COc1ccc(C)cc1NC(=O)NCc1ccco1	4	5	-9	-2	-6	i	-6	-8
O=C(C1=C[C@@H](c2csc3ccccc23)C[C@@H](OCCCCO)O1)N1CCN(Cc2ccc3c(c2)OCO3)CC1	-5	-2	-7	9	-1	i	20	-5
Cc1cccc2sc(NC(=O)CSc3nc4ccccc4o3)nc12	4	-3	-22	-68	-7	i	-6	14
O=C(NCCNc1ccccc1[N+](=O)[O-])c1ccccc1F	3	-2	4	-87	-5	i	-4	0
COC(=O)c1cccc(OCC(O)Cn2ccnc2)c1 (configuration not stated)	1	-3	-13	.	-10	i	3	-6

Assay outcomes deposited in PubChem by several laboratories.

This is a subset; count on the stated rates, not on these rows.
